Bioassay records (PubChem BioAssay)
NS1 function inh: blocks influenza NS1 protein function; S. cerevisiae slowed by influenza A NS1, growth recovery by OD600; Potency, µM (doses to about 46.1 µM), inactives show at the highest dose activity, positive = more growth; 270,000 tested, 0.4% active; AID 2326; active means well fitted rising curve with a large enough effect; inconclusive means small, poorly fitted or top-dose-only effect; inactive means no such curve, though single readings can be large or run the other way; also: nearly all actives have a fitted effect of over 50% in size
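OD600 was taken as the measure of yeast growth restored by compound in an NS1-expressing S. cerevisiae strain. Cells had been washed out of glucose medium and diluted 1:100 into galactose -URA medium, pH 6.0.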
SARS PLP yeast: inhibitors of SARS-CoV papain-like protease in yeast; AID 485353; Potency, µM (series often up to 32.9 µM), for inactives: at the top dose activity, positive = growth rescue; 330,000 tested, 0.19% active; S. cerevisiae expressing SARS-CoV PLpro, growth rescue; control for the full effect not named in the record; active means well fitted rising curve with a large enough effect; inconclusive means small, poorly fitted or top-dose-only effect; inactive means no such curve, though single readings can be large or run the other way; also: 0% is about no effect; nearly all actives have a fitted effect of over 55% in size; growth read by luminescence after 48 h
Lassa entry inh: Lassa virus entry inhibition | Potency, µM (series often up to 37.9 µM), for inactives: at the top dose activity change, negative = inhibition, actives largely listed as inhibitors | 300,000 tested, 1.2% active | AID 540256 | Lassa virus pseudotype entry inhibition, cell reporter; control for the full effect not named in the record; active means well fitted inhibition curve with a large enough effect; inconclusive means small, poorly fitted or top-dose-only effect, or effect the other way; inactive means flat fitted curve, though single readings scatter; tested in HEK293 cells; also: % is scaled to controls: 0 for no effect and ±100 for the full control effect; nearly all actives have a fitted effect of over 50% in size; luciferase read-out
RE007 growth inh: less growth of the S. pombe RE007 Vpr strain; S. pombe RE007 Vpr strain, BacTiter-Glo ATP luminescence, 24 h; control for the full effect not named in the record; AID 651644; Potency, µM (series often up to 92.2 µM), for the others: at the top dose activity change, negative = less growth; 360,000 tested, 0.21% active; active = well fitted falling curve with a large enough effect; inconclusive = small, poorly fitted or top-dose-only effect; inactive = no such curve, though single readings can be large or run the other way;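 also: % is scaled to controls: 0 for no effect and ±100 for the full control effect; nearly all actives have a fitted effect of over 50% in size; the assay follows cell death caused by Vpr and the record does not say whether a fall means rescue or toxicity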
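Fission yeast strain RE007, carrying one chromosomally integrated HIV-1 vpr copy, was seeded at OD 0.01 in PMG+AL medium with 23 nL pinned compound. After 24 h at 30 °C and 99% humidity, viability was read by BacTiter-Glo luminescence.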
Cruzain inh noDet: blocks cruzain activity in detergent-free assay. P25779. purified cruzain, Z-FR-AMC fluorescence, no detergent. Potency, µM, inactives show max response, negative = inhibition, hits mostly inhibitors. 200,000 tested, 2.3% active;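 also: plate controls were enzyme without inhibitor for no effect and buffer without enzyme for full effect; nearly all actives have a fitted effect of over 40% in size; top concentration of the series not given in the record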
Target sequence (P25779 123-467 limits assumed): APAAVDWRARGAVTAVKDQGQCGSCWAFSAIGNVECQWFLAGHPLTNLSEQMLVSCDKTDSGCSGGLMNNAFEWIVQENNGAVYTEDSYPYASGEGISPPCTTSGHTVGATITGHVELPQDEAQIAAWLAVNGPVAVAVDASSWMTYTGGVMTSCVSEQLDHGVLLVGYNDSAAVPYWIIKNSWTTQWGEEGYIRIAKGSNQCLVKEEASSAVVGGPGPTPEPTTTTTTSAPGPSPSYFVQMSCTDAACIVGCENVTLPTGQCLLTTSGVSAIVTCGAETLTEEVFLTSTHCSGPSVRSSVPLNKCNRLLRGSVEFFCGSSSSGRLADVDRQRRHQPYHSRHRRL
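Purified cruzain at 1.5 nM, pre-incubated 15 min with compound at room temperature in 100 mM sodium acetate pH 5.5, 5 mM DTT, 0.00005% Triton X-100. Reaction started with 2 uM Z-FR-AMC; AMC fluorescence increase over 60 s gives rate.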
2A StopGo: FMDV 2A StopGo reporter, luciferase signal; human cells with a luciferase reporter of 2A StopGo recoding; control for the full effect not named in the record; Potency, µM (highest dose often 57.9 µM), without a hit: top-dose signal change, negative = less light; 410,000 tested, 1.2% active; active = well fitted falling curve with a large enough effect; inconclusive = small, poorly fitted or top-dose-only effect; inactive = no such curve, though single readings can be large or run the other way; tested in HEK293T cells; also: % is scaled to controls: 0 for no effect and ±100 for the full control effect; nearly all actives have a fitted effect of over 45% in size; luciferase light after 4 h
Cruzain inh Det: blocks cruzain activity in presence of Triton detergent; P25779; purified cruzain, Z-FR-AMC fluorescence, 0.01% Triton; Potency, µM, for inactives: max response, negative = inhibition, hits mostly inhibitors; 200,000 tested, 0.43% active;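 also: plate controls were neutral wells for no effect and buffer without enzyme for full effect; nearly all actives have a fitted effect of over 40% in size; top concentration of the series not given in the record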
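Cruzain (1.5 nM) preincubated 15 min at RT with compound in 100 mM sodium acetate pH 5.5, 5 mM DTT, 0.01% Triton X-100. Reaction started with 2 uM Z-FR-AMC; AMC fluorescence (ex 360/em 450 nm) change over 60 s gave rate.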
MARV entry inh: inhibitors of Marburg virus binding or cell entry | Marburg virus pseudotyped entry inhibition, cell reporter; control for the full effect not named in the record; about a third of the inactives were read at about 46 µM | Potency, µM (titrated, usually from 37.8 µM), without a hit: top-dose activity change, negative = inhibition, actives largely listed as inhibitors | 300,000 tested, 1.8% active | AID 540276; active = well fitted inhibition curve with a large enough effect; inconclusive = small, poorly fitted or top-dose-only effect, or effect the other way; inactive = flat fitted curve, though single readings scatter; tested in HEK293 cells; about a fifth of its hits are not listed in these tables; also: % is scaled to controls: 0 for no effect and ±100 for the full control effect; luciferase read-out
The depositor's hits bear a star; ? = inconclusive; nt = no result given; & = joins results of further samples; [ ] = dose if it differs, or a comment. Unless noted, calls follow the shape of the dose curve; as a rule, active = well fitted curve in the direction sought with a large enough effect; inconclusive = small, poorly fitted or top-dose-only effect, or another doubt; inactive = no such curve, though single readings can be large; an effect the other way counts as inactive or inconclusive. Potency is read from the fitted curve at half-maximal effect.

item	Molecule	NS1 function inh	SARS PLP yeast	Lassa entry inh	RE007 growth inh	Cruzain inh noDet	2A StopGo	Cruzain inh Det	MARV entry inh
1	COc1ccccc1C(=O)Nc1c(C(=O)Nc2ccc(C)cc2)oc2ccccc12	nt	nt	9%[46.1 µM]	nt	-11%	-8%	-1.1%	2%[46.1 µM]
2	CN1CCN(C(=O)/C(=C/c2ccco2)NC(=O)c2ccccc2)CC1	-7%	0%	0%[46.1 µM]	22%	nt	3%	nt	0%[46.1 µM]
3	CNC(=S)NC1CC2CCCC(C1)N2CC(C)C (stereo not given)	5%	?	3%	3%	3%	nt	5.1%	?
4	O=C(NCC1CCN(Cc2ccccc2F)CC1)Nc1cccc(Br)c1	-1%	-1%	?	?	nt	?	nt	?
5	Cn1cnnc1SCC(=O)NC1CCCc2ccccc21 (stereo not given)	nt	-2%	2%	2%	nt	13%	nt	-21%[46.1 µM]
6	O=C(C1CCN(S(=O)(=O)c2cccc3cccnc23)CC1)N1CCN(c2ccccn2)CC1	-23%	-3%	-11%	-5%	11%	?	2.7%	-8%
7	COc1cc(C(=O)Nc2ccc3c(c2)OCCO3)ccc1-n1cnnn1	-6%	-8%	?	-5%	-11%	14%	-2.0%	?
8	COC(=O)c1cc(-c2ccc(S(=O)(=O)N3CCCC3)cc2)c(C(F)(F)F)s1	6%	-2%	1%[46.1 µM]	5%	nt	-20%	nt	-27%[46.1 µM]
9	Cc1cccc(C(=O)Nc2ccc(-c3nc4cc(C(C)C)ccc4o3)cc2)c1	nt	nt	3%[46.1 µM]	nt	-13%	?	-1.9%	nt
10	Cc1cccc(C(=O)Nc2ccc(N3CCN(C(=O)c4ccco4)CC3)cc2)c1	8%	0%	0%[46.1 µM]	5%	nt	7%	nt	?
11	Cc1ccc(C)c(N(CC(=O)NCc2ccco2)C(=O)CNS(=O)(=O)c2ccccc2)c1	-5%	5%	9%	1%	nt	-2%	nt	-11%
12	Cc1cccc(Cn2cc3c(=O)n(CC(=O)Nc4c(C)cccc4C)nc-3c3cc(F)ccc32)c1	nt	nt	-2%[46.1 µM]	nt	-1%	-5%	-8.0%	nt
13	O=C(NCCCN1CCOCC1)c1ccc2nc(Cc3ccccc3F)oc2c1	-8%	3%	3%	0%	nt	35%[activator]	nt	8%
14	CC(=O)c1c(C)[nH]c(C(=O)OCn2nnc3ccccc3c2=O)c1C	1%	-6%	-8%	-9%	-3%	?	3.7%	?
15	Cc1ccc(C(=O)NC(=O)CSc2nncn2C)cc1	-4%	9%	3%[46.1 µM]	-4%	nt	4%	nt	-5%[46.1 µM]
16	O=C(NCc1cccs1)c1ccc2c(c1)N(Cc1ccccc1Cl)C(=O)c1ccccc1S2	nt	nt	-12%[46.1 µM]	nt	?	-7%	-1.2%	nt
17	C=CCn1c(SCC(=O)NCCCC)nc2scc(-c3ccco3)c2c1=O	17%	8%	-16%	-1%	-7%	-24%	-27%	-18%
18	Cc1cccc(-c2nc3scc(CCNS(=O)(=O)c4c(C)noc4C)n3n2)c1	nt	nt	2%[46.1 µM]	nt	11%	12%	-3.9%	nt
19	c1ccc(CN2CCC(Nc3ncnc4sccc34)CC2)cc1	3%	0%	-3%	-28%	nt	-14%	nt	-5%[46.1 µM]
20	CCCCc1c(O)nc(SCC(=O)NCC2CCCO2)[nH]c1=O (stereo not given)	4%	-2%	6%	10%	3%	0%	-0.4%	15%[46.1 µM]
21	O=S(=O)(NCc1nc2ccccc2[nH]1)c1ccccc1	8%	-8%	nt	-6%	nt	27%	nt	nt
22	S=C(Nc1ccc(Br)cc1)N1CCN(c2ccccn2)CC1	-19%	-6%	nt	?	nt	28%	nt	nt
23	CC(=O)C1=C(O)C(=O)N(c2ccc(F)cc2)C1c1ccc(C)cc1 (stereo not given)	-7%	?	0%[46.1 µM]	5%	nt	6%	nt	6%[46.1 µM]
24	CC1CCN(C(=O)C2CCN(c3nnc(-n4cccc4)s3)CC2)CC1	-2%	-2%	nt	-4%	nt	?	nt	nt
25	COc1cccc(NC(=O)CN(C)C(=O)c2c(C)noc2C)c1	nt	3%	-2%	24%	nt	4%	nt	9%
26	COc1cccc(NC(=O)N2CCN(c3ccc(C(F)(F)F)cn3)CC2)c1	-2%	0%	-1%	-7%	-13%	0%	-8.0%	11%
27	Cc1ccc(/C(O)=C2\C(=O)C(=O)N(C)C2c2ccc(F)cc2)cc1 (stereo not given)	27%	2%	nt	0%	nt	-4%	nt	nt
28	CC(=O)c1c(C)[nH]c(C(=O)COC(=O)CNS(=O)(=O)c2ccccc2)c1C	-1%	3%	17%	13%	-24%	-2%	-17%	-18%
29	Nc1nnc(CC(=O)N/N=C/c2cc([N+](=O)[O-])cc(Br)c2O)s1	18%	13%	-1%	20%	nt	-22%	nt	23%
30	O=C(CCC(=O)N1CC2C[C@@H](C1)Cn1c2cccc1=O)NCCc1ccccc1	-16%	9%	nt	14%	nt	-13%	nt	nt
31	COC(=O)c1ccc(C(=O)OC)c(NC(=O)CCS(=O)(=O)Cc2ccccc2)c1	2%	0%	19%[46.1 µM]	1%	nt	-2%	nt	?
32	O=C(NC(=S)Nc1ccc2[nH]c(=O)[nH]c2c1)c1cncc(Br)c1	2%	1%	15%	7%	nt	-18%	nt	1%[46.1 µM]
33	CCOC(=O)c1ccccc1NC(=O)CN1C(=O)CC(c2ccco2)Sc2ccccc21 (stereo not given)	nt	nt	nt	nt	?	41%[activator]	-8.4%	?
34	CN(CCCC(=O)Nc1ccncc1)S(=O)(=O)c1ccc(Cl)cc1	-11%	3%	?	7%	-1%	?	4.0%	-32%&-32%
35	c1ccc(CCN(Cc2ccccc2)Cc2nc(C3CC3)no2)cc1	-12%	-3%	?	-3%	nt	-4%	nt	?
36	O=C1N(Cc2cccnc2)C[C@@H]2C[C@@H](c3cccc(OCc4ccccc4)c3)N3CCC[C@@]123	-3%	0%	-22%	-29%	nt	?	nt	?
37	CCOc1ccc(C)cc1S(=O)(=O)NC1CCCCC1	-8%	-1%	15%	1%	-7%	80%[activator]	8.9%	8%
38	COCCOC(=O)C1=C(C)NC(=O)NC1c1cc2c(cc1Br)OCO2 (stereo not given)	6%	4%	9%[46.1 µM]	9%	nt	-10%	nt	0%[46.1 µM]
39	COc1ccc(C(=O)NCC(=O)N/N=C(\C)Cc2ccccc2)cc1	-5%	?	nt	-6%	nt	-3%	nt	nt
40	CC(C)(C)OC(=O)N1CCC(c2c(C(=O)NCCc3ccccc3)cnn2-c2ccc(F)cc2)CC1	nt	nt	nt	nt	14%	-19%	-7.5%	nt
41	O=C(CSc1nc2c(cnn2-c2ccc(F)cc2)c(=O)[nH]1)N1CCCCC1	-11%	0%	nt	-19%	-13%	-16%	-2.2%	nt
42	Cc1ccc(C(=O)Nc2ccccc2C(=O)NCc2ccccc2)cc1	5%	-65%	-29%	5%	2%	9%	-12%	-19%
43	O=S(=O)(c1cc(F)ccc1F)N1CCN2CCCC2C1 (stereo not given)	12%	3%	nt	-9%	nt	-13%	nt	nt
44	COc1cccc(-n2c(SCC(=O)NCC3CCCO3)nc3c(c2=O)SCC3)c1 (stereo not given)	14%	-1%	-3%[46.1 µM]	-4%	nt	-6%	nt	22%[46.1 µM]
45	COc1ccc(CC(=O)NC(C)c2nnc(SCC(=O)Nc3ccccc3)n2C)cc1 (stereo not given)	-3%	-1%	nt	6%	nt	-13%	nt	nt
46	COc1ccc(C2=NOC3(CC(=O)N(c4ccc(Cl)cc4)C3=O)C2)c(OC)c1 (stereo not given)	7%	3%	3%	-1%	-12%	-6%	1.7%	-2%
47	CCOC(=O)CCNC(=O)CCNC(=O)C(c1ccccc1)c1ccccc1	-8%	1%	10%	3%	nt	-14%	nt	10%
48	CCCNc1nc(N2CCOCC2)nc(N2CCOCC2)n1	-3%	-1%	-24%	-1%	4%	-4%	2.7%	13%
49	CCc1ccc2oc(-c3ccc(NC(C)=O)cc3)nc2c1	-67%	-14%	?	5.6µM*	nt	1%	nt	?
50	O=C(NCc1cccnc1)c1cccs1	1%	0%	15%	36%	nt	2%	nt	-5%
51	CCn1cc(/C=C(\NC(=O)c2cc(OC)c(OC)c(OC)c2)C(=O)NCCCn2ccnc2)c2ccccc21	nt	nt	9%[46.1 µM]	nt	1%	-12%	-8.5%	?
52	COc1ccc(CN2CNc3c(c(=O)n(C)c(=O)n3C)C2)cc1	7%	28%	?	2%	-1%	-3%	-0.1%	0%
53	CC(=O)c1cccc(S(=O)(=O)N2CCCC(c3nc4c(nnn4Cc4ccc(C)cc4)c(=O)[nH]3)C2)c1 (stereo not given)	12%	0%	?	15%	nt	-5%	nt	?
54	CN(C)c1ccc(N=Nc2ccc3ncccc3c2)cc1	nt	nt	?	-16%	nt	-47%	nt	?
55	CN(C(=O)COC(=O)CCc1nc2ccccc2c(=O)[nH]1)C1CCS(=O)(=O)C1 (stereo not given)	4%	2%	nt	2%	nt	-11%	nt	nt
56	COc1cc2oc(=O)cc(C)c2c(OC)c1OC	-17%	-4%	-21%[46.1 µM]	-7%	-2%	-2%	-3.9%	?
57	CCOc1ccc(C(=O)OCC(=O)N(Cc2ccccc2)Cc2ccccc2)cc1OC	nt	-4%	?	-2%	nt	-6%	nt	12%
58	Cc1ccc(S(=O)(=O)C(CNC(=O)c2ccc(C(F)(F)F)cc2)c2ccco2)cc1 (stereo not given)	nt	nt	27%[46.1 µM]	nt	-9%	-23%	-6.1%	nt
59	CC(C)Oc1ccc(C(=O)Nc2ccc(N3CCN(C(=O)c4ccco4)CC3)cc2)cc1	12%	2%	?	0%	nt	18%	nt	-2%[46.1 µM]
60	Cc1cccc(N2CCN(C(=O)c3ccc(Cl)c(NC4=NC5CS(=O)(=O)CC5S4)c3)CC2C)c1 (stereo not given)	-28%	-1%	nt	-10%	nt	-27%	nt	nt
61	CSCC[C@H](NC(=O)N1CCn2c1nc1ccccc12)C(=O)N[C@H](Cc1ccccc1)C(=O)O	8%	-16%	nt	6%	nt	-11%	nt	nt
62	COc1ccc(Nc2ccc(N3C(=O)CC(C)C3=O)cc2[N+](=O)[O-])cc1OC (stereo not given)	nt	2%	9%[46.1 µM]	0%	nt	-12%	nt	12%[46.1 µM]
